KCNQ2 block = KCNQ2 potassium channel inhibitors, primary screen, cell-based, CHO-K1, FluxOR thallium flux, B-score (AID 2156); Potassium voltage-gated channel subfamily KQT member 2 (Rattus norvegicus), O88943; 20 min; stronger effect = lower value; only compounds with negative scores are shown here; some inactives read as strong as hits; B-score at 10 µM; 310,000 tested, 1.1% active;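 active = fluorescence ratio B-score at most minus 3 library SDs, with starting brightness B-score within 2 library SDs, cut at about -5.5 in these data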
Target sequence (O88943 whole entry, looked up): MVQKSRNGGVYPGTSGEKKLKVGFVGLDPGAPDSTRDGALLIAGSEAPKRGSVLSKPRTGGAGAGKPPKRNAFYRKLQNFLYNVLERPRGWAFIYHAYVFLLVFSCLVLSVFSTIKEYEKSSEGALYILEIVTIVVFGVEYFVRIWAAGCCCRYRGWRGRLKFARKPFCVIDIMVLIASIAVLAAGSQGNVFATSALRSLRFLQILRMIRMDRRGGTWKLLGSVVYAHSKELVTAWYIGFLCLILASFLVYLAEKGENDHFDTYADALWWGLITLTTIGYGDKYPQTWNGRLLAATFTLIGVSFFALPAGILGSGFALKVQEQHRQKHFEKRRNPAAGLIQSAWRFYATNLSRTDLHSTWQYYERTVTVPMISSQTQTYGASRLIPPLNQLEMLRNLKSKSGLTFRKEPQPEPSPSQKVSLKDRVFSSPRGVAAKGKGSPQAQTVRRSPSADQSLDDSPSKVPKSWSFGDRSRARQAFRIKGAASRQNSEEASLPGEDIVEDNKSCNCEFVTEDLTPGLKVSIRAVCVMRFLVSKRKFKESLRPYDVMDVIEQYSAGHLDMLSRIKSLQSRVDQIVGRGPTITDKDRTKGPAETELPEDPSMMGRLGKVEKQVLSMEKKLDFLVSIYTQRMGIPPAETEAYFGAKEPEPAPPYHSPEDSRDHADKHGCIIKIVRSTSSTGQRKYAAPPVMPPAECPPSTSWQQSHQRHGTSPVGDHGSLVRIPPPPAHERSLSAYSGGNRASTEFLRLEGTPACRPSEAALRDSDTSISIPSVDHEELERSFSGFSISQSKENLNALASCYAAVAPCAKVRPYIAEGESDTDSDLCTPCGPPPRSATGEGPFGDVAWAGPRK
KCNQ2 block baseline = second read-out of KCNQ2 block, no call of its own (marks repeat the call); B-score; measured here: initial fluorescence intensity artifact check;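 brightness before thallium and not channel activity; 0 = typical well and far values either way flag optical interference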
Starred values were filed as active, the others as inactive; i = inactive. Not all compounds are listed, so the mix of outcomes need not match the whole.

SMILES	KCNQ2 block	KCNQ2 block baseline
Cc1c(C(=O)N2CCCCC2)oc2ccc(S(=O)(=O)N3CC(C)CC(C)C3)cc12 (stereo unspecified)	i	0.91
O=C1[C@@H]2C(c3ccc(F)cc3)=NO[C@@H]2C(=O)N1Cc1ccccc1	i	-1.6
CC1CCN(C(=O)CSc2nc3ccccc3c(=O)n2Cc2ccc3c(c2)OCO3)CC1	-7.3*	-0.01*
Cc1ccccc1NC(=O)C12CC3CCC1(C)C3(C)CO2 (stereo unspecified)	i	1.4
COc1cc2[nH]c(=O)n(Cc3ccc(C(=O)NC4CCCC4)cc3)c(=O)c2cc1OC	i	0.53
CC(C)(C)NC(=O)COc1ccc(CNCc2cccnc2)cc1	i	-1.7
N#CCSc1nc2cc(C(=O)N3CCC(C(N)=O)CC3)ccc2c2nc3ccccc3n12	i	0.01
Cc1ccc2[nH]c3c(c2c1)CN(C(=O)CN1CCN(Cc2ccc4c(c2)OCO4)CC1)CC3	i	1.2
COc1nc(-c2ccc(Cl)cc2)ccc1-c1noc(-c2ccco2)n1	i	-1.3
CC(C)[C@H](NC(=O)c1ccccc1)C(=O)OCC(=O)NCc1ccc(F)cc1	i	-0.45
CCOc1ccccc1N1CCN(C(=O)CC(C)(C)C)CC1	i	-0.42
O=C(Cc1ccccc1)Nc1ccc(NC(=O)c2cccc(Cl)c2)cc1	i	-0.11
CCN(CC(=O)Nc1ccc(NC(C)=O)cc1)C(=O)COc1ccc(C(=O)c2ccccc2)cc1	i	0.04
Cc1cc(C)n(-c2cc(-c3ccccc3)nc(C)n2)n1	i	1.2
O=C(NC1=NCCS1)c1ccc(Cl)s1	i	1
CNc1nc(SC)nc(N(C#N)CC(=O)OC)n1	i	-0.03
C=C(C)C1CC=C(CN2CC(C)OC(C)C2)CC1 (stereo unspecified)	i	0.26
COc1ccccc1NC(=O)/C(C#N)=C/c1ccncc1	i	-1.4
C=C(C(=O)c1ccccc1)C(C)C(=C)C(=O)c1ccccc1	i	-0.79
Cc1ccc2nc(-c3ccccc3)cc(C(=O)NCC3CCCO3)c2c1 (stereo unspecified)	i	-0.33
O=C1/C(=C/c2ccco2)Oc2c1ccc(O)c2CN1CCCCC1	i	30
C=CCOc1ccc(C2NC(=O)NC(C)=C2C(=O)OC)cc1 (stereo unspecified)	i	1.3
Cn1cc(S(=O)(=O)CC(=O)N2CCCc3ccccc32)c2ccccc21	i	-0.05
O=C(C(Cc1ccccc1)n1cccc1)N1CCN(Cc2ccccc2)CC1 (stereo unspecified)	i	-0.02
CC1CCCN(S(=O)(=O)c2ccc3oc(=O)ccc3c2)C1 (stereo unspecified)	i	0.74

The list goes on.
SMILES	KCNQ2 block	KCNQ2 block baseline
Cc1cc(C)cc(-c2nnc(SCC(=O)N3CCN(C(=O)c4ccco4)CC3)o2)c1	i	-0.88
Cc1cccc(N=Nc2c(O)[nH]c3ccc(Br)cc23)c1	i	-0.36
CC(C)c1ccc(O)c(NC(=S)NC(=O)c2cccnc2)c1	i	0.09
CCCCNS(=O)(=O)c1ccc(NC(=O)Cc2ccc(OC)cc2)cc1	i	0.19
Cc1nnc(SC(C(=O)c2ccccc2)c2ccccc2)[nH]c1=O (stereo unspecified)	i	0.14
COc1ccc(-c2noc(N3CCC(C(=O)NCc4ccccc4Cl)CC3)n2)cc1	i	0.19
Cc1cc(C)n(C2CCCCC2OC(=O)c2ccccc2)n1 (stereo unspecified)	i	1.1
COc1ccc(-c2nn(-c3ccccc3)cc2/C=N/NC(=O)c2ccc(Br)o2)cc1	i	0.04
CCCNC(=O)NCCc1c(C)[nH]c2ccccc12	i	2.6
Cc1c(NC(=O)Nc2cccc(F)c2)c(=O)n(-c2ccccc2)n1C	i	0.98
Nc1nc(N)c2c(ccc3nccc32)[nH]1	i	-0.23
Cc1ccnc(NC(=O)CCC(=O)N(CC(=O)NC2CCCCC2)Cc2cccs2)c1	i	1
CCOc1ccc(CCNC(=O)C(C)n2nc(C)n3c(cc4occc43)c2=O)cc1OCC (stereo unspecified)	i	-1.3
Cc1ccc2c(CN3CC(C)CC(C)C3)cc(=O)oc2c1C (stereo unspecified)	i	-0.62
O=c1[nH]n(-c2ccc(Cl)cc2)c(=O)c(Cl)c1Cl	i	-0.04
CCOc1ccc(-n2c(SCC(=O)Nc3nccs3)nnc2-c2ccoc2C)cc1	i	1.7
CC1CC(C)CN(C(=O)CSc2nc3ccsc3c(=O)n2Cc2ccccn2)C1 (stereo unspecified)	i	0.65
CCCCN(C)C(=O)C1CCN(Cc2cccc(OCc3ccccc3)c2)CC1	i	0.04
COC(=O)c1sccc1NC(=O)/C=C/C(=O)O	i	-0.35
COc1cc2c(cc1OC)CN(C(=O)/C=C/c1ccc(F)cc1)CC2	i	-1.1
O=C(COC(=O)CCCN1C(=O)c2cccc3cccc(c23)C1=O)Nc1cccc(C(F)(F)F)c1	i	0.46
CN(C)S(=O)(=O)c1ccc(C(=O)Nc2ccc(CN3CCCC3)cc2)cc1	i	0.63
CC(C)(C)[C@@H]1CCC(=O)N(CC[C@H](N=[N+]=[N-])c2ccccc2)CC1	i	-0.08
Cc1nnc(C)c2c(C)n(-c3ccccc3)c(C)c12	i	0.53
CC(C)NC(=O)CC(=O)N/N=C/c1ccc(Br)cc1	i	0.74

A second format for some results above:
Values in the order – KCNQ2 block | KCNQ2 block baseline
CC1CCCN(S(=O)(=O)c2ccc3oc(=O)ccc3c2)C1 (stereo unspecified)
    i | 0.74
Cc1cc(C)cc(-c2nnc(SCC(=O)N3CCN(C(=O)c4ccco4)CC3)o2)c1
    i | -0.88
Cc1cccc(N=Nc2c(O)[nH]c3ccc(Br)cc23)c1
    i | -0.36

Reformatted bar-delimited: entries from further up
SMILES | KCNQ2 block | KCNQ2 block baseline
COc1cc2c(cc1OC)CN(C(=O)/C=C/c1ccc(F)cc1)CC2 | i | -1.1
O=C(COC(=O)CCCN1C(=O)c2cccc3cccc(c23)C1=O)Nc1cccc(C(F)(F)F)c1 | i | 0.46

Returning to the listing, repeating the 5 entries before the break.
SMILES	KCNQ2 block	KCNQ2 block baseline
O=C(COC(=O)CCCN1C(=O)c2cccc3cccc(c23)C1=O)Nc1cccc(C(F)(F)F)c1	i	0.46
CN(C)S(=O)(=O)c1ccc(C(=O)Nc2ccc(CN3CCCC3)cc2)cc1	i	0.63
CC(C)(C)[C@@H]1CCC(=O)N(CC[C@H](N=[N+]=[N-])c2ccccc2)CC1	i	-0.08
Cc1nnc(C)c2c(C)n(-c3ccccc3)c(C)c12	i	0.53
CC(C)NC(=O)CC(=O)N/N=C/c1ccc(Br)cc1	i	0.74
CC(=C1C(=O)c2ccccc2C1=O)N1CCC(C(N)=O)(N2CCCCC2)CC1	i	-0.5
O=C1CC2(CCCCC2)Oc2ccc(OCC(=O)N3CCOCC3)cc21	i	-0.6
COc1ccc2c(c1)CCc1c(C(=O)NCc3ccc(Cl)cc3)noc1-2	i	-1.4
CCCSc1nc(C)c2cc(C)cc(C)c2n1	i	0.29
COc1cc2c(cc1OC)CN(CC(=O)Nc1ccc(F)cc1)C(C(=O)O)C2 (stereo unspecified)	i	0.41
NS(=O)(=O)c1ccc(NC(=O)COC(=O)/C(=C/c2cccs2)c2cccs2)cc1	i	-0.17
C/C(Cl)=C\Cn1c(Nc2cccc(C)c2)nc2c1c(=O)n(C)c(=O)n2C	i	-0.93
COC(=O)c1ccccc1NC(=O)C1CCCN(S(=O)(=O)c2ccc(F)cc2)C1 (stereo unspecified)	i	0.19
CCC(C)NC(=O)c1ccccc1NC(=O)c1ccc(CSc2ccccc2)cc1 (stereo unspecified)	i	1.8
CC(C)C(c1nnnn1C(C)(C)C)N1CCN(c2cccc(Cl)c2)CC1 (stereo unspecified)	i	0.21
COc1cccc(NC2c3ccccc3C(=O)N2Cc2ccco2)c1 (stereo unspecified)	i	-1.4
CSc1nc2ccccc2c(=O)n1C1CCOC(C)(C)C1 (stereo unspecified)	i	-0.05
Nc1nc(-c2ccco2)nn1C(=O)CCc1ccccc1	i	1.2
CCOc1ccc(NC(=O)C2CCN(S(C)(=O)=O)CC2)cc1	i	-0.09
O=C1C(Cl)=C(N2CCOCC2)C(=O)N1c1cccc(Cl)c1	i	0.89
O=C(CSc1nnnn1-c1ccc2c(c1)OCCO2)Nc1nc2c(s1)CCCC2	i	5.6
Cc1cc(C(=O)CN2C(=O)NC3(CCCc4ccccc43)C2=O)c(C)n1Cc1ccccc1 (stereo unspecified)	i	1.5
COc1ccc(C(=O)C2CCCN(C(=O)c3c4c(nn3C)CCCC4)C2)cc1F (stereo unspecified)	i	-0.01
CC(=O)Nc1ccc(S(=O)(=O)N[C@@H](C)C(=O)N2CCN(c3ccccn3)CC2)cc1	i	-1.2
COc1ccc(C2CC(C(F)(F)F)n3nc(C(=O)Nc4ccc5c(c4)OCO5)cc3N2)cc1 (stereo unspecified)	i	0.15
CC1(C)CC2CC(C)(CN2C(=O)c2cc(-c3ccccc3)on2)C1 (stereo unspecified)	i	-0.19
CC(=O)c1ccccc1NC(=O)COC(=O)/C=C/c1ccc(C)o1	i	1.7
Cc1cccc(N(CC(=O)N2CCc3ccccc3C2)S(C)(=O)=O)c1C	i	0.66
CCc1c(C)[nH]n(-c2nc(-c3cccc([N+](=O)[O-])c3)cs2)c1=O	i	1.4
COc1ccccc1Nc1ccncc1[N+](=O)[O-]	i	0.71

Carrying on:
SMILES	KCNQ2 block	KCNQ2 block baseline
COc1ccc(NC(=O)C2CCCN2C(=O)NC2CCCCC2)cc1OC (stereo unspecified)	i	-0.08
Cn1c(COc2ccc(Cl)cc2)nc2ccccc2c1=O	i	-1.6
O=C(Cc1ccccc1)Nc1ccccc1C(=O)Nc1ccccc1	i	-0.64
O=C(Nc1ccccc1)OC1CC2CC1C1CCCC21 (stereo unspecified)	i	0.1
O=C(N/N=C/c1ccc2c(c1)OCO2)C(=O)N1CCCC1	i	1.5
O=C(N/N=C/C=C/c1ccco1)c1cccnc1	i	-1
Nc1nc(N)nc(-c2ccccc2)n1	i	-0.9
CCOc1ccc(C2Nc3ccc4ccccc4c3-c3c2c(=O)oc2ccccc32)cc1 (stereo unspecified)	i	-0.3
CCOCCCNC(=O)/C(C#N)=C/c1ccc(Cl)c([N+](=O)[O-])c1	i	-0.05
O=C(O)CCc1ccc(S(=O)(=O)Nc2ccccc2C(=O)NCCc2ccccc2)cc1	i	-0.41
O=C(c1cc(-c2ccc(Br)cc2)nc2ccccc12)N1CCN(c2ccccc2O)CC1	i	0.19
NC(=O)c1ccccc1OCc1cccc2ccccc12	i	2.4
O=c1[nH]c(C2CCCN(S(=O)(=O)c3ccc(F)cc3)C2)nc2c1nnn2Cc1ccc(F)cc1 (stereo unspecified)	i	0.44
CC1Sc2ccc(S(=O)(=O)N3CCC(C(=O)NCCc4ccccc4)CC3)cc2NC1=O (stereo unspecified)	i	1.7
CN1CCC(NC(=O)Nc2cccc(C(F)(F)F)c2)CC1	i	0.64
CCS(=O)(=O)N1Cc2ccccc2CC1C(=O)OCC(=O)Nc1ccc(SC(F)F)cc1 (stereo unspecified)	i	-0.48
Cc1ccc(NC(=O)CC(C(=O)O)c2ccccc2)cc1 (stereo unspecified)	i	1.6
COC(=O)Nc1csc2c1NC(=O)CCCC2	i	1
COc1ccc(C2=NN(CCC(=O)NCC3CCCO3)C(=O)CC2)cc1 (stereo unspecified)	i	1.9
Cc1ccc([N+](=O)[O-])cc1NC(=O)c1c(-c2ccccc2)noc1C	i	2.8
CC(C(=O)Nc1ccccc1-c1ccccc1)N1CCN(S(=O)(=O)c2ccccc2)CC1 (stereo unspecified)	i	-0.37
CCC(C)NC(=O)c1ccccc1C(=O)NC(C)CC (stereo unspecified)	i	0.04
COc1ccc(CCNC(=O)Cc2ccc(Cl)cc2)cc1OC	i	1.4
CCc1nc2ccc(F)cc2c(C(=O)NC2CCCCC2C)c1C (stereo unspecified)	-7.1*	-0.18*
Cc1ccc(N2C(=O)CC(NNc3nc4ccccc4s3)C2=O)cc1 (stereo unspecified)	i	-0.38

An excerpt from above in order of the KCNQ2 block baseline value, high to low.
SMILES	KCNQ2 block	KCNQ2 block baseline
Cc1ccc([N+](=O)[O-])cc1NC(=O)c1c(-c2ccccc2)noc1C	i	2.8
O=C(N/N=C/c1ccc2c(c1)OCO2)C(=O)N1CCCC1	i	1.5
O=C(Nc1ccccc1)OC1CC2CC1C1CCCC21 (stereo unspecified)	i	0.1
CCc1nc2ccc(F)cc2c(C(=O)NC2CCCCC2C)c1C (stereo unspecified)	-7.1*	-0.18*
CCOc1ccc(C2Nc3ccc4ccccc4c3-c3c2c(=O)oc2ccccc32)cc1 (stereo unspecified)	i	-0.3

Continuation.
SMILES	KCNQ2 block	KCNQ2 block baseline
Cc1ccccc1COC(=O)c1cc([N+](=O)[O-])ccc1N1CCOCC1	i	0.85
CCOc1ccc(OCC(=O)Nc2cc3c(cc2C(=O)O)OCCCO3)cc1	i	0.46
CSC1=NCCN1C(=O)C(C)(C)Oc1ccc(Cl)cc1	i	0.89
O=C(NCc1ccccn1)C(=O)NCC1OCCN1S(=O)(=O)c1ccc(Br)cc1 (stereo unspecified)	i	2.4
C/C(=N/NC(=O)c1ccc(C(C)(C)C)cc1)c1cccnc1	i	-0.69
COc1ccc(OC)c(S(=O)(=O)N2CCCCC2C(=O)O)c1 (stereo unspecified)	i	-0.31
CC1CCCCN1CCCNC(=O)Cn1c(=O)c2cccn2c2ccccc21 (stereo unspecified)	i	-0.38
COc1ccc(-c2nnc(N3CCCCC3)c3ccccc23)cc1	i	-3.5
Cc1cccc(OCc2nnc(SCC(=O)NCC3CCCO3)n2C)c1 (stereo unspecified)	i	0.1
O=C(c1ccccc1)c1nn(-c2ccccc2)c(=O)cc1C(F)(F)F	i	1.4
COn1cnnc1-c1ccccc1	i	-0.4
COc1ccc(-n2cnc3scc(-c4ccccc4)c3c2=O)cc1	i	0.06
CCOc1ccc(N(CC(=O)Nc2cc(Cl)ccc2C)S(C)(=O)=O)cc1	i	-0.41
O=C1C2C3C=CC(C3=C3CCCCC3)C2C(=O)N1c1ccccc1 (stereo unspecified)	i	0.39

From PubChem
